Source: PubChem
Ab BasE inh – BasE siderophore biosynthesis inhibition. purified BasE, fluorescence polarization binding displacement. inhibition, % (concentration not given with the values). actives 0.1% (n = 84,000). AID 485350;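 active = both replicates above 25% with normal brightness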;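 also: 0% = negative plate control signal and 100% = positive plate control signal; stock transfer was 100 nL into about 30 µL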
KSHV LANA nucl – LANA-nucleosome interaction inhibition. FITC-LANA1-23 / chicken nucleosome fluorescence polarization; stronger effect = lower value. z-score (test concentration not listed). actives 0.3% (n = 51,000). AID 720717;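 active = both repeat wells score below -2 in polarization z-score versus plate sample wells, excluding overly bright wells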;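 also: 100 nL library stock added to about 30 µL; numbers are from one replicate; some results filed as inactive read as strong as hits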
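Assay system: purified chicken nucleosomes with FITC-labelled LANA N-terminal peptide (1-23) / Probe or stimulus: 50 nM FITC-LANA1-23 probe / Compound dosing: pin-transferred compound, 100 nL / Times: compound with peptide–nucleosome mix 10–45 min at room temperature / Technique: fluorescence polarization, 480 nm excitation, 535 nm parallel and perpendicular emission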
Active calls of the source: *; / = no result given; & = joins results of further samples.

The opening three records (preview)
Screens in order – Ab BasE inh, KSHV LANA nucl
> N#CCCCN(Cc1ccccc1)Cc1ccccc1
    /, 0.97
> C=CCN1C(=Nc2ccccc2)SC/C1=C\C(=O)OC
    -0.5, -0.59
> COCCn1c(CCC(=O)O)ccc1-c1ccccc1
    -2.0, 1.2

Main list, previewed entries included:
Screens in order – Ab BasE inh, KSHV LANA nucl
> N#CCCCN(Cc1ccccc1)Cc1ccccc1
    /, 0.97
> C=CCN1C(=Nc2ccccc2)SC/C1=C\C(=O)OC
    -0.5, -0.59
> COCCn1c(CCC(=O)O)ccc1-c1ccccc1
    -2.0, 1.2
> N#C/C(=C\C(=O)O)c1cccs1
    /, -1.1
> O=C(Cc1c[nH]c2ccccc12)Nc1ccc(F)cc1
    2.1, /
> Cc1ccc(CNCCCn2ccnc2)cc1
    -1.8, 0.23
> CCC(CC)c1nnc(NC(=O)c2ccc(OCC(=O)N3CCOCC3)c(OC)c2)s1
    -2.5, /
> Cc1c(C(=O)/C=C/N(C)C)nnn1-c1ccc(F)c(Cl)c1
    /, 0.048
> CC(C)(C)c1ccc(NC(=O)Nc2ccc3c(c2)OCCO3)cc1
    0.4, /
> NCCCOCC1CC1
    2.3, /
> CCCCNC(=O)c1cn(C)c2ccc(S(=O)(=O)N3CCCCC3)cc2c1=O
    -1.9, -0.02
> CCC(=O)Nc1nc2c(s1)CSc1ccccc1-2
    -0.8, 0.61
> CNCc1cccc(F)c1
    -0.5, /
> Cc1nc(/C(N)=N/OC(=O)c2cc3c([nH]c4ccccc43)c(C)n2)no1
    0.5, 0.016
> CSc1nnc(-c2ccccc2NC(=O)/C=C/c2ccccc2)o1
    1.4, -1.3
> COc1ccccc1C(=O)n1cc(C)cn1
    0.2, -1.4
> CCC(C)CCCCC(=O)NC(CCN)C(=O)NC(C(=O)NC(CCN)C(=O)NC1CCNC(=O)C(C(C)O)NC(=O)C(CCN)NC(=O)C(CCN)NC(=O)C(CC(C)C)NC(=O)C(Cc2ccccc2)NC(=O)C(CCN)NC1=O)C(C)O (stereo unspecified)
    -1.4, 1.3&0.92
> O=C(O)c1ccc(Nc2ccnc3cc(Cl)ccc23)cc1
    1.0, /
> COc1ccc(C(=O)N2CCCC2)cc1S(=O)(=O)N1CCCc2ccccc21
    1.4, /
> CCN1CCCC1CNC(=O)Nc1c[nH]c2ccc(OC)cc2c1=O (stereo unspecified)
    -0.7, -0.38
> c1ccc2c3nnc4n(c-3nc2c1)CCS4
    3.3, 0.057
> O=C(O)c1scc2c1OCCO2
    -1.9, -0.1
> CN(CC(=O)Oc1ccc2c(c1)OCO2)S(=O)(=O)c1ccc(F)cc1
    -0.2, /
> COC(=O)/C=C1\S/C(=N\S(=O)(=O)c2ccccc2)N(c2ccccc2)C1=O
    0.9, /
> O=C1Nc2ccc(S(=O)(=O)NCc3ccc4c(c3)OCO4)cc2C1C1CCCC1 (stereo unspecified)
    -1.4, -0.85
> CCOC(=O)c1cnn(-c2ccccc2)c1-n1cccc1
    /, 0.18
> NS(=O)(=O)c1ccc(NS(=O)(=O)/C=C/c2ccccc2)cc1
    2.4, -0.13
> O=C(O)C1CCCN1c1ncccn1 (stereo unspecified)
    -0.9, -0.49
> COc1ccc(N(Cc2nc3ccccc3s2)S(=O)(=O)c2ccc3c(c2)OCCO3)cc1
    0.8, /
> O=C(Oc1ccc(Br)cc1)c1cccnc1
    -0.5, /
> Cc1nn(-c2ccccc2)c2sc(C(=O)NC3CCS(=O)(=O)C3)cc12 (stereo unspecified)
    -2.5, /
> CSCC(=O)Nc1ccc(C)cc1Br
    2.3, /
> S=C(NCc1ccccc1)NCc1ccccn1
    0.6, /
> CC1CCCC(C)N1CC(=O)O (stereo unspecified)
    -0.5, 0.35
> N#C/C(=C\N1CCN(c2ccccc2)CC1)S(=O)(=O)c1ccc(F)cc1
    1.0, -1.7
> O=C(CSc1ncnc2c1oc1ccccc12)OCc1c(F)cccc1Cl
    1.4, /
> CC(C(=O)OCC(=O)n1c2c(c3ccccc31)CCCC2)N1C(=O)c2ccccc2C1=O (stereo unspecified)
    -0.6, /
> CCCC(C(=O)NC1=NCCS1)c1ccccc1 (stereo unspecified)
    -0.2, /
> CC(=O)Nc1ccc(NC(=O)C(C)OC(=O)c2ccc(S(=O)(=O)N3CCCCC3)cc2)cc1 (stereo unspecified)
    -1.6, /
> CC(C)CNC(=O)CCc1nc(-c2ccccc2)no1
    -0.3, -0.1
> NC(=O)C(c1ccc(F)cc1)c1ccc(C(=O)c2ccccc2)cc1 (stereo unspecified)
    /, 3.3
> Cc1cccc(NC(=O)CSc2nnc(-c3ccoc3C)n2CC(C)C)c1C
    0.0, 1.8
> COc1cc(-c2nc3ccccn3c2NC2CCCC2)ccc1O
    0.6, -0.53
> Cc1cccc(N(C)S(=O)(=O)c2ccc(CN3C(=O)c4cccnc4C3=O)cc2)c1
    -2.4, 0.45
> Cc1ccc(-n2c(CNC(=O)c3cccs3)nnc2SCC(=O)NO)cc1
    -0.8, -0.25
> N#Cc1ccsc1NC(=O)C1CCC1
    -2.3, /
> Cn1c(=O)c2nc3ccc(N=Cc4c(O)n(Cc5ccccc5)c(=O)[nH]c4=O)cc3nc2n(C)c1=O
    18, -2.3*
> O=C(Nc1ccc(CN2CCS(=O)(=O)CC2)cc1)c1ccc(Cl)cc1
    -0.8, -0.27
> O=C(c1cnn(-c2ccccc2)c1-n1cccc1)N1CCN(c2ccccc2)CC1
    0.9, -0.49
> CC(NCC1COc2ccccc2O1)C(=O)Nc1ccc(S(N)(=O)=O)cc1 (stereo unspecified)
    0.2, /

Additional entries
Screens in order – Ab BasE inh, KSHV LANA nucl
> CC(C)NCC(=O)Nc1ccc(-c2ccccc2)cc1
    -1.6, /
> COC(=O)CSc1nc(C)nc2scc(-c3cccs3)c12
    1.8, /
> CCOc1ccccc1C(=O)N(C)c1ccccc1
    -2.9, 0.37
> N/C(COc1ccccc1)=N\O
    1.1, /
> O=C1C=CC(=O)C(CCCCCCC2=CC(=O)C=CC2=O)=C1
    -1.1, 1.1
> COc1cc2c(cc1OC)C(C(=O)Nc1cc(C)c(OC)c(C)c1)CC(=O)N2 (stereo unspecified)
    1.6, -0.28
> N#CCN(CC#N)S(=O)(=O)c1ccccc1
    1.8, -0.85
> CCN(Cc1ccccc1)S(=O)(=O)c1ccc2oc(C(=O)O)c(C)c2c1
    3.7, 0.29
> N#CC(C#N)=Cc1cn(CCCOc2ccccc2Cl)c2ccccc12
    0.3, 0.19
> CC(C)N1CC(COc2ccc(F)cc2)OC1=O (stereo unspecified)
    1.4, 0.5

Next section
SMILES | Ab BasE inh | KSHV LANA nucl
COc1ccc(-n2cnc3sc4c(c3c2=O)CCCC4)cc1 | 1.5 | 0.36
CC1=C(C(=O)Nc2cccc3ccccc23)C2(CCN(C(C)C)CC2)OC1=O | 0.1 | /
CCOC(=O)CNc1cccc(Cl)c1 | 0.9 | 0.32
CCC(C(=O)Nc1ccccn1)c1ccccc1 (stereo unspecified) | -0.4 | 0.071
CCOC(=O)C1(C(F)(F)F)N=C(N2CCOCC2)Oc2c1c(C)nn2-c1ccccc1 (stereo unspecified) | -2.6 | 1.3
Cc1ccc2c(c1)cc(CN(Cc1ccco1)C(=O)c1ccccc1)c1nnnn12 | 1.1 | 0.24
CCOC(=O)C(C#N)c1ccccn1 (stereo unspecified) | 4.9 | 0.23
COc1ccc(C(=O)N2CCc3cc(OC)c(OC)cc3C2C)c(OC)c1 (stereo unspecified) | -1.8 | 0.11
COc1ccc(-n2cnc3cc(NC(=O)c4ccco4)ccc32)cc1 | 0.0 | 1.4
CC1CCc2cc(F)ccc2N1C(=O)C12CCC(C)(C(=O)C1)C2(C)C (stereo unspecified) | 1.7 | -0.49
O=C(NC1CCCC1)c1cc2ccccc2oc1=O | -0.7 | 0.027
O=C(COc1ccccc1/C=C1\N=C2CCCCCN2C1=O)N1CCCC1 | 0.4 | /
Cc1nc2c3c(-c4ccccc4)nc(N4CCCCCC4)nc3nn2c(C)c1CCC(=O)O | 3.5 | 0.43
C/C(CCc1ccc2c(c1)OCO2)=N\NC(=O)c1cc2c3ccccc3n(C)c2s1 | -1.6 | /
CCCCOC(=O)c1ccc(NC(=O)CSCc2n[nH]c(=O)[nH]2)cc1 | 1.0 | -0.65
COc1cc(Cl)c(C)cc1NC(=S)N(CCN1CCCCCC1)Cc1ccco1 | -4.7 | 0.55
Cc1oc(-c2cccc(C(F)(F)F)c2)cc1C(=O)NC(C)C | -0.6 | 0.21
O=C1NCC(=O)N2CCCC12 (stereo unspecified) | 1.0 | 0.42
CCOC(=O)CSc1nc2c(c(=O)n1-c1ccccc1)C(=O)C1COC(C)(C)CC1=N2 (stereo unspecified) | 0.9 | 0.31
COc1cc(OC)c(NC(=O)CN2CC(c3ccccc3)CC2=O)cc1Cl (stereo unspecified) | 2.9 | -0.069
CCCN1CCC(NC(=O)C2CCN(C(C)=O)CC2)CC1 | -0.3 | -1.5
CCOC(=O)c1c(C)[nH]c(C(=O)CSc2nc3ccccc3o2)c1C | -3.0 | /
Cc1ccc(S(=O)(=O)NC(Cc2ccccc2)C(=O)NN)cc1 (stereo unspecified) | 3.2 | -0.27
CN1/C(=C2/SC(=S)N(N)C2=O)Sc2ccccc21 | 8.6 | -0.5
Cc1ccc(S(=O)(=O)Nc2cc(-c3ccccc3)nn2C)cc1Cl | -0.2 | 0.15

Compound profiles, from the list above. Order of values: Ab BasE inh	KSHV LANA nucl
Cn1c(=O)c2nc3ccc(N=Cc4c(O)n(Cc5ccccc5)c(=O)[nH]c4=O)cc3nc2n(C)c1=O is listed as 18	-2.3*
COc1cc(OC)c(NC(=O)CN2CC(c3ccccc3)CC2=O)cc1Cl (stereo unspecified) is listed as 2.9	-0.069
N#Cc1ccsc1NC(=O)C1CCC1 is listed as -2.3	/
O=C(CSc1ncnc2c1oc1ccccc12)OCc1c(F)cccc1Cl is listed as 1.4	/
CCC(C(=O)Nc1ccccn1)c1ccccc1 (stereo unspecified) is listed as -0.4	0.071

More results.
SMILES | Ab BasE inh | KSHV LANA nucl
CN(C)S(=O)(=O)N1CCn2cccc2C1c1ccccc1 (stereo unspecified) | -0.1 | 1.1
Cc1ccc(NC(=O)NC(=O)Cn2ccsc2=N)c(C)c1 | -2.3 | /
CC1CN(CC(=O)C(C#N)c2ccccc2)CC(C)O1 (stereo unspecified) | 1.6 | -0.17
CNC(=O)/C(=C\c1ccc(Cl)cc1)NC(=O)c1ccco1 | -1.1 | 0.53
COc1ccccc1CNC(=O)COC(=O)Cc1ccsc1 | -1.4 | /
CCOc1ccc(C(=O)O)o1 | -2.6 | 0.71
COc1ccc(NC(=O)N2c3ccccc3Sc3ccccc32)cc1 | 1.0 | /
CCOC(=O)c1ccc(S(=O)(=O)NNS(=O)(=O)c2ccc(C)cc2)cc1 | 2.7 | /
COC(CNC(=O)c1ccc2c(c1)C(=O)N(CCc1ccccc1)C2=O)OC | -0.1 | /
COc1ccc(N/C=C/C(=O)c2ccc3c(c2)OCO3)cc1OC | -2.5 | /
C=CCn1c(-c2ccncc2)nn(CN2CCCC(C(=O)OCC)C2)c1=S (stereo unspecified) | 3.7 | /
Cc1cn2c(=O)c(C(=O)NCCCN3CCN(CCCNC(=O)c4cnc5sc(C)cn5c4=O)CC3)cnc2s1 | 4.0 | -0.33
O=C(Oc1ccccc1)C(c1ccccc1)c1ccccc1 | 0.2 | /
Cn1c(C2CC(=O)N(CCc3ccccc3)C2)nc2ccccc21 (stereo unspecified) | -5.2 | -0.23
CC1(C)C2CCC1(C)C(OC(=O)CSc1ncn[nH]1)C2 (stereo unspecified) | 1.9 | 0.04
COc1ccc(N(Cc2nc(N)nc(N)n2)S(=O)(=O)c2cc(C)ccc2C)cc1 | 0.9 | /
COc1cc(C#N)ccc1OCC(=O)Nc1cccc2nsnc12 | 0.2 | /
O=C(O)c1ccccc1C(=O)NCc1ccccc1 | 2.3 | -0.51
Nc1c(NC2CCN(Cc3ccccc3)CC2)c2ccccc2oc1=O | -0.1 | /
CCC(=O)Nc1nnc(CC(=O)N/N=C/c2ccc(O)cc2)s1 | 1.0 | 0.17
COc1ccc(-c2sc(/N=C/c3cccs3)c(C#N)c2C)cc1OC | 7.3 | /
CN(C)S(=O)(=O)c1ccc(NCc2c(C#N)oc3ccc(Br)cc23)cc1 | -0.2 | /
COc1ccccc1OCCNC(=O)c1ccc(-n2cnnc2)cc1Cl | 0.5 | 0.13
O=C(NC1CCN(c2ncccn2)CC1)c1c(F)cccc1F | 1.3 | -1.1
COc1cc(/C=N/OCC(=O)N2C(C)CCCC2C)ccc1OC(F)F (stereo unspecified) | -0.5 | /
Cc1ccc(S(C)(=O)=O)s1 | 1.0 | 0.069
OCCCc1nc2ccccc2n1CC1CCCCC1 | 2.8 | 0.52

Look-ups from the entries so far.
For Ab BasE inh, O=C(CSc1ncnc2c1oc1ccccc12)OCc1c(F)cccc1Cl reads 1.4
For KSHV LANA nucl, O=C1C=CC(=O)C(CCCCCCC2=CC(=O)C=CC2=O)=C1 reads 1.1

Not all compounds are listed, so the mix of outcomes need not match the whole.
